# Screening results from PubChem BioAssay.
# MLL AF4-AF9 inh: inhibitors of AF4 peptide binding to AF9, primary screen, biochemical, AlphaScreen, biotin-AF4 peptide, FLAG-AF9, single point; 350,000 tested, 0.47% active; inhibition, % at 10 µM; AID 651704, 2012;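 active means every replicate reaching a set inhibition limit, whatever the replicate mean, cut at about 25% in these data; inconclusive means mean inhibition reaches that limit but some replicates miss it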;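 further: 0% = plate neutral control median and 100% = total signal loss; the record names both 10 and 1 µM as test concentration; the first replicate is given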
# A1 inh: caspase 3/7 activation in MEF A1-2A-BIM cells, primary screen, A1 inhibitor project, cell-based, luminescence, HTS; caspase activation, % (test concentration not listed); Caspase-Glo 3/7 luminescence, 3 h; percent of clofoctol response, vehicle zero; AID 2462, 2010; 330,000 tested, 0.066% active;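 active means over half of replicate activation scores above 10%, or exactly half above 10 with the replicate mean above 10; inconclusive means replicate mean below 10 yet half the replicates above 10; inactive means over half of replicates below 10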;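 further: wells of about 30 µL received 50 nL stock; many hits fall short of the cut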
# T cruzi inh: inhibitors of intracellular T. cruzi growth, primary screen, luminescence, NIH3T3 host cells | 300,000 tested, 1.4% active | inhibition, % (concentration not given with the values) | T. cruzi beta-gal in NIH3T3, 90 h;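 active means mean inhibition across valid replicates above about 55%, limit read from the data; inconclusive means mean below that limit but half or more replicates reach it; inactive means mean below it, under half of replicates reach it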;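 further: signal also drops with host cell toxicity which is not excluded here; 0% = plate median of DMSO wells and 100% = zero luminescence signal; higher percent means less beta-gal luminescence so fewer parasites; stock transfer was 50 nL into about 50 µL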
# Calb FLC: C. albicans growth inhibition with fluconazole, primary screen, CaCi-2 strain, Alamar Blue fluorescence. C. albicans CaCi-2 (fluconazole-resistant clinical isolate) + fluconazole, 48 h. growth inhibition, % (no concentration beside the values). 300,000 tested, 0.57% active;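 active means most replicates above 75%; inconclusive means exactly half above 75%; inactive means most below 75%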;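 further: all wells also contain fluconazole at 8 µg/ml as a sub-toxic cotreatment; 0% = median of DMSO wells and 100% = median of geldanamycin control wells; wells of about 8 µL received 7.5 nL stock; the first replicate is given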
# RanGTP-Impb inh: inhibitors of RanGTP-importin-beta interaction, primary screen, biochemical, FRET, CFP-Ran, YFP-importin-beta, homogeneous; cell-free CFP-Ran/YFP-importin-beta FRET ratio; inhibition, % (concentration not given with the values); 300,000 tested, 1.1% active; AID 2216, 2009;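 active means most replicates above 15%; inconclusive means exactly half above 15%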;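 further: 0% = DMSO wells and 100% = Ran loaded with GDP instead of GTP; wells of about 40 µL received 100 nL stock; the first replicate is given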
# Beta apoptosis: inhibitors of cytokine-induced beta cell apoptosis, primary screen, luminescence; protection from apoptosis, % (no concentration beside the values); 300,000 tested, 0.8% active; INS-1E cytokine-induced death, ATP luminescence, 48 h; percent of positive-control rescue, neutral wells zero;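 active means all replicates at 75% or more, or half of them and the mean; inconclusive means half reach 75% but not the mean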;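 further: 0% = cytokine-treated negative control wells and 100% = positive control rescue; higher means more ATP so stronger rescue from cytokine killing; wells of about 40 µL received 100 nL stock; the first replicate is given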
# Vif TR-FRET: inhibitors of Vif binding to APOBEC3G peptide, primary screen, biochemical, TR-FRET, GST-Vif 1-94, biotin-A3G peptide, dose response retest (AID 1117319) | Virion infectivity factor (Human immunodeficiency virus type 1 group M subtype B (isolate … | TR-FRET GST-Vif / biotin-A3G peptide binding; higher % means a stronger effect; test concentration not given here; strong numbers were not always called active | one-dose inhibition, %; IC50 in µM for titrated hits | 260,000 tested, 0.57% active;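 active means above the screen mean plus three standard deviations and confirmed in dose response; inconclusive means results disagree or hit not tested in dose response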;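 further: Vif residues 1-94 fused to GST binding biotinylated APOBEC3G peptide 110-148; 0% = full assay without inhibitor and 100% = GST in place of GST-Vif; retest series ran down from 100 µM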
# LANA-H2A inh: blockers of LANA interaction with H2A/H2B – biochemical, FP readout, HTS, primary screen | inhibition, % (concentration not given with the values) | Protein LANA1 (Human herpesvirus 8 type P (isolate GK18)), Q9QR71 | 320,000 tested, 0.6% active | cell-free LANA-H2A/H2B peptide, fluorescence polarization | AID 2629, 2010; in the data active means inhibition mostly above about 10%, no sharp cut-off; inactive means mostly below about 6.7%;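 further: stock transfer was 7.5 nL into about 10 µL; 0% = median of vehicle wells and 100% = median of positive control wells; one replicate is shown; the record names a cut of 25% in any replicate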
# Target sequence (Q9QR71 whole entry, looked up): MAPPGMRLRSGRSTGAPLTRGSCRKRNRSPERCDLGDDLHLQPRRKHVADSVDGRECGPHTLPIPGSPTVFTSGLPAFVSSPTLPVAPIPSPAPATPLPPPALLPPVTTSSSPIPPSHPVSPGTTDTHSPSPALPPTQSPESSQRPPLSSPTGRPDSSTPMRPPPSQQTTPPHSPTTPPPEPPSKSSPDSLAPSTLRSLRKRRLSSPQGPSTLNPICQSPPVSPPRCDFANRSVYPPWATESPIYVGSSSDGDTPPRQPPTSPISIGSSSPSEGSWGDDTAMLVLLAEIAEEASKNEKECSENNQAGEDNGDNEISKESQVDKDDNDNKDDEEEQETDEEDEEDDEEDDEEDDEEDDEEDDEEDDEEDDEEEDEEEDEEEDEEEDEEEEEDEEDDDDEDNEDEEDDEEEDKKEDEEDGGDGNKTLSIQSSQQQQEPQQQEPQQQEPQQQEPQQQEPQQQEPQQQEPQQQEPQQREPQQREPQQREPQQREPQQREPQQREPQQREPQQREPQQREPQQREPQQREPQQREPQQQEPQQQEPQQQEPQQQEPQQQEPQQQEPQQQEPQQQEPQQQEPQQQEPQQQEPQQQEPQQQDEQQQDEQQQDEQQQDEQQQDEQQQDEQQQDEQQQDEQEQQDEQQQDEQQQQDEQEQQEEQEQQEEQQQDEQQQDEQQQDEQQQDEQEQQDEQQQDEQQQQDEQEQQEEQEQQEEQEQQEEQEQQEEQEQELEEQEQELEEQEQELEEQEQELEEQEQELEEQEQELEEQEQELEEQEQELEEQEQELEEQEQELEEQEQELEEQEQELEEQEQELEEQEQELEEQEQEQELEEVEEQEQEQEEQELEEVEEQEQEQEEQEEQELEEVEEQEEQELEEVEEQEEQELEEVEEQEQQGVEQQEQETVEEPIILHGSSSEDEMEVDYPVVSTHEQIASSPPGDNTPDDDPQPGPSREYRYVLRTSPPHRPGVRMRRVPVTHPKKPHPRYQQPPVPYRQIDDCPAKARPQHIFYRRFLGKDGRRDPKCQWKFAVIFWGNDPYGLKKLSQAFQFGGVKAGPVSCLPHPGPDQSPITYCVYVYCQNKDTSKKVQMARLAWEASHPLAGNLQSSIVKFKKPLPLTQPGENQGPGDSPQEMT
# * = called active by the depositor; ? = inconclusive; · = not tested or not shown; & = joins results of further samples. A portion of the library; the hit share may differ from the screen's.
SMILES,MLL AF4-AF9 inh,A1 inh,T cruzi inh,Calb FLC,RanGTP-Impb inh,Beta apoptosis,Vif TR-FRET,LANA-H2A inh
CC(=O)C1(c2ccccc2)CCN(C(=O)C2CCC(=O)N(CCc3cccc(F)c3)C2)CC1 (centres undefined),0.3,1.4,6,-6,0.2,-5,2%,0.5
CCC(C)C1(CC)C(=O)NC(=O)N=C1N (centres undefined),·,-2.8,-28,2,0.9,-8,13%,0.2
COc1ccc(C(C)=O)cc1CC(C(=O)c1ccc(C)cc1)N(C)C (centres undefined),3.5,0.9,3,-20,-2.1,-1,·,-2.0
COc1ccc(CCNCc2ccccc2F)cc1,-53,-0.4,25,2,-4.0,1,-5%,4.9
CC1CCN(CC#CCOc2ccc(Cl)cc2)CC1,5.2,0.0,3,-14,1.3,2,·,0.8
O=c1oc2ccccc2c(O)c1C(c1ccccn1)c1c(O)c2ccccc2oc1=O,·,-0.9,2,-1,1.3,-4,·,0.0
O=C1/C(=C\c2cc3c(cc2Cl)OCO3)N2CCC1CC2,·,0.7,-1,-15,1.5,8,0%,-1.5
CCC(C)N1CCN(C(=O)Cc2ccccc2)CC1 (centres undefined),·,1.7,-17,-10,-2.4,0,-1%,3.1
CCOC(=O)CN1C(=O)C2(C(C#N)=C(N)Oc3ccccc32)C(C(=O)OC)=C1C (centres undefined),·,-0.5,-22,5,-0.4,-2,-2%,2.1
CCCNC(=O)N1[C@H]2CC[C@@H]1C(C(=O)OC)=C(c1ccc(F)cc1F)C2,-2.8,0.9,·,·,·,3,·,-0.8
O=c1c2ccccc2nc(-c2ccccc2)n1-c1nccs1,-7.5,-0.2,0,-9,1.1,-5,2%,0.8
CCCCN1C(=O)NC(=O)C2(Cc3c(nc4c(C)cccn4c3=O)N3CCc4ccccc4C32)C1=O (centres undefined),·,0.3,32,35,-2.3,4,0%,10
CN1CCCN(C(=O)COc2ccccc2Br)CC1,0.8,-0.9,12,0,-1.2,-6,-1%,1.9
CCCCn1c(=O)c(C(=O)NCc2ccco2)c(O)c2ccccc21,1.0,-0.1,-7,-8,-2.8,21,-11%,0.6
CCCCCCCSc1cc(OC)c(CCNC)cc1OC,·,-0.3,20,-4,2.9,-2,3%,2.2
COC(=O)C1=C(c2ccccc2OCc2ccccc2)C[C@@H]2CC[C@H]1N2C(=O)NCc1ccc(C(C)(C)C)cc1,-1.1,0.7,·,·,·,2,·,6.6
COC(=O)C1=C(c2ccc(OC)c(OC)c2)C[C@@H]2CC[C@H]1N2C(=O)NCCOc1ccc(OC)cc1,-0.2,0.9,·,·,·,-2,·,0.5
CC(Cc1ccccc1)NC(=O)Cc1ccc([N+](=O)[O-])cc1 (centres undefined),-4.2,-0.2,-2,-2,1.8,-3,·,2.6
c1cncc(C2CC(c3cccs3)n3ncnc3N2)c1 (centres undefined),·,0.3,-10,7,3.0,-2,1%,11
Nc1ccc(CCN2CCCC2)cc1,?,1.0,5,-4,-0.2,3,·,-0.5
O=c1[nH]c(O)c(N=Nc2ccc3c(c2)OCCO3)c(=O)[nH]1,0.3,1.1,6,14,-4.8,5,·,2.0
CN(C)C1(c2nnnn2-c2ccc(Cl)cc2)CCCCC1,4.6,-0.3,4,-3,6.2,·,0%,1.1
CN(C)c1ccc(C(=O)c2ccc(N(C)C)cc2)cc1,·,0.8,-44,17,0.7,9,19%,4.3
N#C[C@H](O[C@@H]1O[C@H](CO[C@@H]2O[C@H](CO)[C@@H](O)[C@H](O)[C@H]2O)[C@@H](O)[C@H](O)[C@H]1O)c1ccccc1,-3.8,0.6,·,·,·,1,·,8.6
O=C1CC(c2cccnc2)=NN1c1ccccc1,0.0,1.1,3,-5,2.2,·,12%,-0.4
CCCC1(CCC)C(=O)NC(=Nc2ccccc2)NC1=O,·,-0.2,-1,-5,1.5,-10,7%,-2.2
NP(=O)(OCCCc1ccccc1)c1ccccc1 (centres undefined),-3.4,-0.3,-5,18,1.0,2,·,1.2
CC(C)OC(=O)C1C2c3ccccc3C(c3ccccc32)C1C(=O)O (centres undefined),-1.9,1.1,-10,33,-2.6,2,-4%,2.8
COc1ccc2[nH]c(C)c(CCNCc3cn(C)c4ccccc34)c2c1,51*,0.1,·,·,·,10,·,3.6
O=C1NC(=O)C2(Cc3ccccc3N3CCCC32)C(=O)N1c1ccc(Cl)cc1 (centres undefined),2.1,0.3,-9,7,·,-2,30%,5.0
COc1c(/C=C2/C(=O)NC(=O)N(C)C2=O)c(CCN(C)C(=O)c2ccccc2)cc2c1OCO2,-3.0,0.1,-6,29,-0.7,8,·,-5.4
O=C1Nc2cc(C(=O)N3CCC4(CC3)OCCO4)ccc2NC1CSCc1cccc(F)c1 (centres undefined),·,-0.3,-8,3,-0.5,-6,·,-5.4
O=P(/C(=N/O)N1CCCCC1)(N1CCOCC1)N1CCOCC1,·,1.6,-17,-5,-2.0,·,-2%,2.3
Cn1c(O)c(C=Nc2cccc(C(F)(F)F)c2)c(=O)n(C)c1=O,-18,1.0,-6,7,-0.6,-1,·,-7.9
COc1ccccc1N1CCN(Cc2ccccc2Cl)CC1,·,-0.4,4,-2,-0.2,0,-2%,-4.1
CN1CCc2nc(SCc3ccccc3Br)c(C#N)cc2C1,2.3,2.8,52,3,-6.2,-1,6%,1.7
O=C1CC(=O)N(c2ccc(Cl)cc2)C(=O)N1,0.0,0.0,-4,4,1.0,-4,-3%,2.5
C=CCN1CC[C@]23c4c5ccc(O)c4O[C@H]2C(=O)CC[C@@]3(O)[C@H]1C5,-0.5&-0.7,2.3&-0.2,-22,·,2.5,-2&-2,-1%,1.5&2.7
CCC(=Nc1ccc2c(c1)CCC2)c1c(O)n(C)c(=O)n(C)c1=O,·,0.2,6,-1,-0.6,36,·,-1.7
O=P(Nc1ccccc1)(Nc1ccccc1)Oc1ccc(Cl)cc1,7.3,-0.1,12,1,-3.1,10,-7%,-1.9
COC(=O)C1=C(c2ccc(C(C)=O)cc2)C[C@@H]2CC[C@H]1N2C(=O)NCCCOC(C)C,-6.2,0.6,·,·,·,-7,·,-2.4
COc1ccc(N2C(=O)NC(=O)/C(=C\c3cn(CC(=O)N4CCOCC4)c4ccccc34)C2=O)c(OC)c1,-0.8,-0.2,3,-2,-10,-8,-2%,-3.9
O=C(c1ccc(CS(=O)(=O)c2ccc(Br)cc2)o1)N1CCC2(CC1)OCCO2,·,1.1,-17,-6,2.2,-5,25%&-8%,5.8
CC1CCC(C(C)C)C(OC(=O)COC(=O)c2ccccc2N)C1 (centres undefined),·,0.5,-1,-1,-3.8,9,3%,-2.7
Cc1ccc(S(=O)(=O)N2CCCC2c2cccnc2)cc1 (centres undefined),2.5,0.2,34,3,-7.3,-10,2%,1.9
Oc1c(Cl)c(Cl)c(Cl)c(Cl)c1Cl,-2.7,-1.4,4,·,-0.3,6,·,-3.4
COc1cc(C)cc(CN2CC=C(c3ccccc3)CC2)c1O,14,1.2,23,-3,-0.7,7,1%,-1.1
CCc1nnc(NS(=O)(=O)c2ccc(N=Cc3c(O)n(-c4ccccc4)c(=O)[nH]c3=O)cc2)s1,-2.6,-0.2,-4,9,1.4,-4,?,3.5
O=C(CCCCCn1c(=S)[nH]c2ccccc2c1=O)N1CCC2(CC1)OCCO2,·,0.2,8,7,-0.8,7,6%,-1.6
CC(=O)O[C@H]1CC[C@@]2(C)C(=CC(=O)C3C2CC[C@@]2(C)C3C[C@H](OC(C)=O)[C@@H]2OC(C)=O)C1 (some centres undefined),-1.3,0.4,·,·,·,-2,-9%,0.7
COc1ccc(C(O)c2ccccc2OP(=O)(N(C)C)N(C)C)cc1 (centres undefined),·,0.2,-4,5,0.5,-3,·,4.4
O=C1CN=C(c2ccccc2)c2cc(Br)ccc2N1,6.8,0.1,2,-5,1.3,-10,·,2.1
COc1ccc2[nH]cc(C3=CCNCC3)c2c1,·,-0.4,19,·,-35,3,·,-28
Brc1ccc(CN2CCNCC2)s1,·,0.1,1,-7,-0.5,-2,-2%,-6.1
CN(C)CC#CCn1c2ccccc2c2ccccc21,7.0,-0.4,31,-2,-2.2,-3,0%,4.5
Cc1cc(OC(=O)N(C)C)n(-c2ccccc2)n1,-1.2,-0.1,-11,-5,5.5,-7,·,-1.5
Cc1ccccc1NC1=NCC(C)S1 (centres undefined),·,1.4,-9,-4,4.1,2,?,7.5
Brc1ccc(-[n+]2c(-c3ccccc3)cc(-c3ccccc3)cc2-c2ccccc2)cc1,14,-0.1,35,-11,-1.5,129*,·,-1.0
CCN1CCN(Cc2cc(Br)cc(Br)c2O)CC1,·,1.7,32,-11,-15,-3,0%,-2.7
O=C1NC(=O)N(c2ccc3c(c2)OCO3)C(=O)/C1=C/c1cccs1,-3.5,0.8,-6,1,-1.6,3,23%,-4.9
# Later entries.
SMILES,MLL AF4-AF9 inh,A1 inh,T cruzi inh,Calb FLC,RanGTP-Impb inh,Beta apoptosis,Vif TR-FRET,LANA-H2A inh
COC(=O)C1=C(c2ccc(OC)c(OC)c2)C[C@@H]2CC[C@H]1N2C(=O)NCCc1ccccc1,-2.7,-0.2,·,·,·,-12,·,2.9
CC1CCCC(NC(=O)COC(=O)Cc2ccccc2)C1C (centres undefined),·,1.4,-18,-11,1.8,-7,?,7.3
COc1cc(CC2C(=O)N(C)C(=O)N(C)C2=O)ccc1OCc1ccccc1,6.5,-1.6,-1,-4,4.8,1,?,2.0
CN(C)CCn1cnc2ccccc21,1.3,0.8,-8,5,2.3,-6,-3%,0.7
COc1ccc(C(O)P(=O)(OC(C)C)OC(C)C)cc1 (centres undefined),-6.8,0.1,-12,3,0.6,-3,?,0.1
COc1ccc(CC2(CCc3ccncc3)C(=O)NC(=O)NC2=O)cc1,-2.6,1.9,-1,-5,3.4,-6,12%,-3.5
COC(=O)Cn1cc(C=C2C(=O)N(C)C(=O)N(C)C2=O)c2ccccc21,-5.7,-0.5,-11,-1,1.5,-5,·,-0.9
O=C1CSC2(CN3CCC2CC3)N1 (centres undefined),·,0.1,-7,-3,0.7,-1,-6%,3.0
CN(C)c1nc(N(C)C)nc(N(C#N)CCCl)n1,1.2,0.8,7,2,-2.2,-6,·,0.8
C[C@@H]1C2C[C@@]34COC(=O)C3=CC=C[C@H]4[C@@]13C[C@H](c1ccoc1)O[C@@H]3O2,·,-0.3,·,·,·,-6,9%,-3.4
O=P(Nc1cccnc1)(Oc1ccccc1Cl)Oc1ccccc1Cl,-23,0.4,3,-4,-0.8,-2,-8%,5.5
C[C@]12CCC3C(CC[C@H]4C[C@H](O)CC[C@]34C)C1[C@@H](O)C[C@@H]2O (some centres undefined),0.6,0.1,·,·,·,0,-8%,-0.7
COc1cc([C@@H]2c3cc4c(cc3[C@@H](OC)[C@H]3COC(=O)[C@H]23)OCO4)cc(OC)c1O,2.6,0.7,-34,-14,-5.4,0,·,8.4
CC(N)Cc1c[nH]c2c1ccc1ccccc12 (centres undefined),16,0.2,9,-7,-3.6,-5,·,-3.7
